AID923 – qHTS Assay for Allosteric/Competitive Inhibitors of Caspase-1: Spectroscopic Profiling in AFC Spectral Region | AID 923, 2007 | 75,000 compounds, 1.1% hits | Potency, µM (titrated, usually from 57.5 µM), for inactives: at the highest dose fluorescence increase, hits mostly activators | compound fluorescence, AFC spectral region (405/520 nm); almost no hit is shown here; active = well fitted activation curve with a large enough effect; inconclusive = small, poorly fitted or top-dose-only effect;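 also: potency is read from the fitted curve at half-maximal effect; 0% is about no effect; scaled to a free AFC standard on each plate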
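Titrations up to 57 uM read every 20 sec for 3 min (405/520 nm) with 50 nM caspase 1 and 5 uM Ac-WEHD-AFC, pH 7.5 HEPES buffer. Fluorescence-vs-time intercept gave baseline, scaled against on-plate AFC standard.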
A647 fluor – A647 region autofluorescence; Compound fluorescence, A647 channel (570/671 nm), Tris buffer; max dye-equivalent concentration, M; 59,000 tested, under 10 active; active means above 1 µM dye equivalent; inconclusive means 0.1 to 1 µM; inactive means 0.1 µM or less;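 also: values scaled relative to a standard on each plate; highest value over a series up to 38 µM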
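Each compound's intrinsic fluorescence at 570 nm excitation and 671 nm emission is measured across its concentration series in 100 mM Tris, pH 8.0, after 15 min at room temperature, and reported relative to an A647 curve.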
Resorufin fluor – compounds fluorescent in resorufin spectral region; max dye-equivalent concentration, M; Compound fluorescence, resorufin region 547/598 nm, buffer; hits give high values; 59,000 compounds, 0.04% hits; active = above 10 nM dye equivalent; inconclusive = 1 to 10 nM; inactive = 1 nM or less; a few of its hits are not listed in these tables; also: highest value over a series up to 38 µM
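Compounds in 100 mM Tris buffer, pH 8.0, incubated 15 min at room temperature, then read with 547 nm excitation and 598 nm emission filters. Fluorescence was converted to dye-equivalent concentration using an on-plate six-point resorufin standard curve.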
TSHR agonist – agonists of human thyroid stimulating hormone receptor; HEK293-CNG-TSHR cells (CNG channel as cAMP sensor), membrane potential dye, cAMP; P16473; AID 926; 73,000 compounds, 0.48% hits; Potency, µM (series often up to 57.1 µM), for inactives: at the highest dose activation, usual class: activators; active = well fitted activation curve of enough size with the parental cells flat; inconclusive = any curve in the parental cells; inactive = parental cells flat and receptor cells flat or falling; also: potency is read from the fitted curve at half-maximal effect; % of control where 0% means no effect; weak receptor curves with flat parental cells got no call and are not listed
Target sequence (P16473 whole entry, looked up): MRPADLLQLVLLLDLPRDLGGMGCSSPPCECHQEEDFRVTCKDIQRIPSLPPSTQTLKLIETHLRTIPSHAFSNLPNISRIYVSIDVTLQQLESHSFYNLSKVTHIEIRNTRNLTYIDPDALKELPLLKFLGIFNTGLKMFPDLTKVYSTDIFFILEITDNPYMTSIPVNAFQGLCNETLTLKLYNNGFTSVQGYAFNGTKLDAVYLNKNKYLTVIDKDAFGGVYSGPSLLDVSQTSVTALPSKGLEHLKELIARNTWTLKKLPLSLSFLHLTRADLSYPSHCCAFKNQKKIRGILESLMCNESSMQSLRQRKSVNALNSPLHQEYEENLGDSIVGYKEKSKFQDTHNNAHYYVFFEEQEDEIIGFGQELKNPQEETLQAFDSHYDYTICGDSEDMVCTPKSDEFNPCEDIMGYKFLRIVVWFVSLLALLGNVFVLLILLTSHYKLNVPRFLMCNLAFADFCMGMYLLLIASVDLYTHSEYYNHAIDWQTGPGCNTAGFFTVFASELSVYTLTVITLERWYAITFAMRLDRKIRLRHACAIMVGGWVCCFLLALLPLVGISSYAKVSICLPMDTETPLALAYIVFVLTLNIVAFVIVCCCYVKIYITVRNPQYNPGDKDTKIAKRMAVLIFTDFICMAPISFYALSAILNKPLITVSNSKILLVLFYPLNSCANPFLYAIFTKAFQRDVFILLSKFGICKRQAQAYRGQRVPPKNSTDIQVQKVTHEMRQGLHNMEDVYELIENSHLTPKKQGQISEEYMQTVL
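HEK 293 cells stably expressing TSHR and a cAMP-gated CNG channel; parental CNG-only cells as counterscreen. Cells preloaded 60 min with membrane potential dye plus 100 uM RO 20-1724, then compound 30 min; fluorescence read at 590 nm.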
A488 fluor – A488 region autofluorescence; 59,000 compounds, 0.1% hits; AID 591; max dye equivalency, M; compound autofluorescence, A488 spectral region, dye equivalency; hits give high values; active = above 10 nM dye equivalent; inconclusive = 1 to 10 nM; inactive = 1 nM or less; about half of its hits are not listed in these tables;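 also: highest value over a series up to 38 µM; compound alone in buffer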
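Autofluorescence read at ex 480/em 540 nm after 15 min RT in 100 mM Tris pH 8.0; compound signal normalized to A488 standard series on each plate, reported as dye-equivalent concentration at each test concentration.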
Active calls of the source: *; i = inactive; u = inconclusive; x = no result given; [ ] = another dose, or the depositor's remark.

no.	mol	AID923	A647 fluor	Resorufin fluor	TSHR agonist	A488 fluor
1	CCn1c(=O)cc(OCC(=O)N2CCCC2)c2ccccc21	3.4%	x	x	5.9%	x
2	CCC1CCCCN1C(=O)CSc1nnc(CNC(=O)c2ccco2)o1 (stereo not drawn)	-0.7%	2.79e-08	i	-0.3%[11.4 µM]	i
3	N#Cc1ccc(CSc2nnc(-c3ccccn3)n2-c2ccccc2)cc1	-3.7%	2.13e-08	i	18.2%	i
4	COC(=O)C/C=C\[C@@H](C)[C@@H](/C=N\OC[C@@H](C)[C@H](OCc1ccccc1)C(C)C)NS(=O)(=O)c1ccc(C)cc1	-0.4%[11.5 µM]	x	x	4.7%[11.4 µM]	x
5	CCOC(=O)Cn1c(=O)c2c(nc(Br)n2Cc2ccccc2)n(C)c1=O	-1.7%	2.8e-09	i	18.3%	i
6	CC1(C)CC(=O)c2cc(C(=O)NCc3ccco3)c(=O)n(-c3ccc(Cl)cc3)c2C1	-0.7%	1e-09	i	u	i
7	COc1ccc(COC(=O)c2n[nH]c3ccccc23)cc1F	0.6%	2.45e-08	i	27.2%	i
8	Cc1nc2ccccc2c(=O)n1CCCn1ccnc1	1.9%	1.7e-08	i	x	i
9	COc1ccccc1-n1c(SCC(=O)NC2CCCC2)nc2cccnc21	0.6%	1e-09	i	3.6%	i
10	Clc1ccccc1C1=Nn2c(nnc2-c2ccncc2)SC1	0.0%	3.61e-08	i	29.7%	i
11	Nc1ccc(S(N)(=O)=O)cc1	-0.4%	1.82e-08	i	u	i
12	COc1cccc(Cn2c(NCc3ccccn3)nc3c2c(=O)n(C)c(=O)n3C)c1	x	9.55e-08	i	x	i
13	Oc1cccnc1CN1CCCCC1	1.1%[11.5 µM]	1.79e-08	i	4.9%[11.4 µM]	i
14	COc1cccc(C(c2nnnn2Cc2ccccc2)N2CCN(C3CCCC3)CC2)c1OC (stereo not drawn)	0.6%	5.58e-08	i	14.3%	i
15	CCn1c(SC(C)C(=O)O)nc2sc3c(c2c1=O)CCC3 (stereo not drawn)	x	5.7e-09	i	x	i
16	O=C(C1CCN(S(=O)(=O)N2CCC3(CC2)OCCO3)CC1)N1CCC(Cc2ccccc2)CC1	-1.4%	1e-09	i	20.8%	i
17	COc1cccc(OC)c1C(=O)Nc1nc2ccc(S(C)(=O)=O)cc2s1	x	1e-09	i	x	i
18	O=C1CSC(c2cccc(F)c2)N1c1ccccc1F (stereo not drawn)	0.2%	1e-09	i	4.9%	i
19	COC(=O)c1[nH]c2cc(OC)ccc2c1N	11.4%	1.5e-09	i	-21.3%	i
20	CCOc1ccccc1NC(=O)CSc1nccn1-c1ccccc1	0.7%	3e-09	i	u	i
21	CCc1c(O)nc(SCC(=O)N2CCOCC2)n(-c2ccccc2)c1=O	0.7%	1.92e-08	i	-5.9%	i
22	CCN(CC)/C(=N/O)NC(=O)NS(=O)(=O)c1ccc(C)cc1	-0.6%	1e-09	i	-4.7%	i
23	O=C(O)CCCC(=O)Nc1ccc(Br)cc1C(=O)O	-1.9%	3.69e-08	i	1.7%	i
24	Cc1cccc2c(=O)cc(C)n(CC(=O)N3CCOCC3)c12	-1.3%	1e-09	i	1.9%	i
25	C1CCN(CC[C@@H]2CCCCN2)CC1	0.8%[11.5 µM]	5.4e-09	i	-0.2%[11.4 µM]	i

Reformatted as labelled records: part of the list above.
(3) N#Cc1ccc(CSc2nnc(-c3ccccn3)n2-c2ccccc2)cc1
  AID923: -3.7%	A647 fluor: 2.13e-08	Resorufin fluor: i	TSHR agonist: 18.2%	A488 fluor: i
(4) COC(=O)C/C=C\[C@@H](C)[C@@H](/C=N\OC[C@@H](C)[C@H](OCc1ccccc1)C(C)C)NS(=O)(=O)c1ccc(C)cc1
  AID923: -0.4%[11.5 µM]	A647 fluor: x	Resorufin fluor: x	TSHR agonist: 4.7%[11.4 µM]	A488 fluor: x
(5) CCOC(=O)Cn1c(=O)c2c(nc(Br)n2Cc2ccccc2)n(C)c1=O
  AID923: -1.7%	A647 fluor: 2.8e-09	Resorufin fluor: i	TSHR agonist: 18.3%	A488 fluor: i

New compounds follow:
no.	mol	AID923	A647 fluor	Resorufin fluor	TSHR agonist	A488 fluor
26	CCCn1c(SCC(=O)c2cc(OC)ccc2OC)nnc1C(C)C	2.0%	1e-09	i	8.7%	i
27	COCC(C)n1c(SCC(=O)N2CCCCC2)nc2ccccc2c1=O (stereo not drawn)	-0.8%	1e-09	i	u	i
28	Cc1c(C(N)=O)sc(N)c1C(=O)OC(C)C	1.8%	x	x	-8.1%	x
29	C/C(O)=C(\C#N)c1nnc2n1CCCCC2	-1.2%	2.3e-09	i	9.3%	i
30	CCOC(=O)c1cccc(NC(=O)Cn2cc3c(n2)CCC(C)C3)c1 (stereo not drawn)	-2.4%	x	x	17.4%	x
31	c1ccc(Cc2nnc3sc(C4COc5ccccc5O4)nn23)cc1 (stereo not drawn)	-1.1%	2.5e-09	i	x	i
32	COc1ccc(C(CC(=O)NCCCN2CCOCC2)NS(=O)(=O)c2ccc(C)cc2)cc1 (stereo not drawn)	0.8%	1.86e-08	i	2.9%	i
33	O=c1c2[nH]c3cccc(Cl)c3c2ncn1CCN1CCCCC1	-0.1%	5.4e-09	i	-10.0%	i
34	O=C(CN1CCOCC1)Nc1cccc(Br)c1	0.6%	2.79e-08	i	-2.8%	i
35	O=C(CSC1=NCCN1)C1COc2ccccc2O1 (stereo not drawn)	-0.9%	x	x	11.5%[11.4 µM]	x
36	CCn1c(NC2CCCCC2)nc2ccccc21	0.0%	2.74e-08	i	9.0%	i
37	CC(C)c1nc2oc3c(N4CCN(C)CC4)ncnc3c2c2c1CCC2	0.8%	4.87e-08	i	16.8%	i
38	COc1cccc(-n2nnc3c(=O)n(Cc4cccc(F)c4)cnc32)c1	0.0%	1e-09	i	23.0%	i
39	O=c1c(-c2cccc(Cl)c2)nc2cncnc2n1Cc1ccc(F)cc1	2.7%	1.39e-08	i	4.0%	i
40	Nn1c(Cc2cccc3ccccc23)nnc1SC1CCOC1=O (stereo not drawn)	-2.0%	1.41e-08	i	0.3%	i
41	COC(=O)c1[nH]c2ccc(C)cc2c1NC(=O)CN1CCN(C(=O)c2ccccc2)CC1	-0.2%	1e-09	i	10.0%	i
42	O=C(NCc1nc2ccccc2[nH]1)c1ccco1	2.7%	3.18e-08	i	-6.7%	i
43	O=[n+]1c2c(n([O-])c3c1CCCC3)CCCCC2	-1.1%	x	x	-3.6%	x
44	CN(C)CCCN(C(=O)c1cccs1)c1nc(-c2ccccc2)cs1	1.0%	1.85e-08	i	2.8%	i
45	O=C(c1nn2cccnc2c1Cl)N1CCN(c2ccccc2)CC1	1.6%	1e-09	i	-7.9%	i
46	CCCn1c(SCC(=O)NCCc2ccc(OC)c(OC)c2)nc2c1c(=O)n(C)c(=O)n2C	1.2%	1e-09	i	-0.5%	i
47	O=C(Cc1cccs1)Nc1nncs1	-0.3%	1.2e-09	i	1.7%	i
48	CCN1C(c2ccc(F)cc2)=CS/C1=C(\C#N)c1nnc2n1-c1ccccc1SC2	2.8%	1e-09	i	20.3%	i
49	CC(C)(C)c1nc(NCCN2CCOCC2)c2nnn(Cc3ccccc3Cl)c2n1	0.5%	1e-09	i	12.4%	i
50	CN1C(=O)/C(=C2/C=Cc3ccccc3N2CCCS(=O)(=O)O)SC1=S	-2.3%	2e-09	i	-9.4%	i
51	Cc1cccc(CCNS(=O)(=O)c2ccc3c(c2)oc(=O)n3C)c1	1.3%	3.34e-08	i	11.2%	i
52	Cc1cc2c(ccc3c2no[n+]3[O-])nn1	2.5%	2.42e-08	i	-1.3%	i
53	COCCNC(=O)c1cc2cc(Br)cc(OC)c2oc1=O	-1.8%	1e-09	i	-4.7%	i
54	Cc1nc(-c2cccc(S(=O)(=O)N3CC(C)OC(C)C3)c2)cs1 (stereo not drawn)	-1.6%	4.57e-08	i	8.9%	i
55	Nc1nc(-c2ccccc2)c(-c2ccccc2)c(-c2nc(N)nc(-c3ccccc3)c2-c2ccccc2)n1	-3.1%[11.5 µM]	1e-09	i	5.6%[11.4 µM]	i
56	CCN(CC)CCN1C(=O)C(=O)/C(=C(/O)c2ccc(OC)c(OC)c2)C1c1ccccn1 (stereo not drawn)	15.7%	1.3e-09	i	1.6%	i
57	COC(=O)c1ccccc1NC(=O)NCc1ccc2c(c1)OCO2	0.2%	5.5e-09	i	x	i
58	CC1Oc2ccccc2N(CC(=O)c2cccc(Cl)c2)C1=O (stereo not drawn)	0.6%	1.63e-08	i	u	i
59	COC(=O)COc1ccc(NC(=O)C2CCCO2)cc1 (stereo not drawn)	0.3%	2.07e-08	i	-9.1%	i
60	O=C(CSC1=NCCN1)Nc1ccccc1	-2.3%[11.5 µM]	9.4e-09	i	-11.4%[11.4 µM]	i
61	Cc1ccc2[nH]c(C(=O)O)c(-c3ccccc3)c2c1	-1.1%	2.14e-08	i	10.7%	i
62	CCN1C(=O)c2cccc3c(S(=O)(=O)Nc4nc(C)cs4)ccc1c23	9.2%	5.5e-09	i	16.8%	i
63	COCCn1nnnc1C(c1ccccc1Cl)N1CCN(c2ccccc2OC)CC1 (stereo not drawn)	-1.2%	2.67e-08	i	u	i
64	CC1=C(C(=O)Nc2ccccn2)C(c2ccc(F)cc2)n2ncnc2N1 (stereo not drawn)	-1.2%	2.25e-08	i	-4.6%	i
65	O=C(CSc1nnc(-c2ccccn2)n1Cc1ccccc1)N1CCCC1	0.0%	3.7e-09	i	14.0%	i
66	O=C(O)C1C2CCC(C2)C1C(=O)NCCCn1ccnc1 (stereo not drawn)	-1.0%	x	x	10.1%	x
67	O=C(Nc1cccnc1)c1cc(-c2ccc3c(c2)OCO3)on1	0.7%	1e-09	i	2.1%	i
68	CNC(=O)CSc1nnc(-c2ccc(S(=O)(=O)N3CCCC3)cc2)n1-c1cccc(C)c1C	0.0%	2.29e-08	i	-1.0%	i
69	Fc1ccc(-c2csc3nnc(SCc4cccnc4)n23)cc1	-0.6%	1.53e-08	i	-0.6%	i
70	O=C(NCc1ccccc1)C1C(=O)N(Cc2ccccc2)C(=O)C1C1(O)CCCC1 (stereo not drawn)	x	1.45e-08	i	x	i
71	CCCCCOC(=O)CSc1nc2c(c(=O)[nH]c(=O)n2C)n1CCc1ccccc1	-0.2%	1e-09	i	17.7%	i
72	CCc1[nH]nc2c1C1(CCN(C(=O)c3ccccc3)CC1)C(C#N)=C(N)O2	-0.5%	5.7e-09	i	-1.2%	i
73	COc1ccc(CCNC(=O)c2c(O)c3cccc4c3n(c2=O)CC4)cc1OC	1.4%	2.8e-09	i	12.5%	i
74	C[C@@]12C=CC(=O)C=C1CC[C@H]1[C@H]3CC[C@](O)(C(=O)CO)[C@]3(C)CC(=O)[C@@H]12	-2.4%[25.7 µM]	3.29e-08	i	-11.5%[25.6 µM]	i
75	COc1cc(OC)nc(NC(=O)CS(=O)(=O)c2ccccc2)n1	-0.5%	2.37e-08	i	-6.8%	i

New compounds follow.
no.	mol	AID923	A647 fluor	Resorufin fluor	TSHR agonist	A488 fluor
76	Cc1cccc(NC2=NCC(=O)N2Cc2ccccc2)c1	-1.0%	6.4e-09	i	-2.2%	i
77	O=C(NCCCn1ccnc1)c1ccco1	-0.4%	7.7e-09	i	u	i
78	COc1cc2c(C(=O)Nc3ccc4c(c3)OCO4)cn(CC(C)C)c(=O)c2cc1OC	-1.0%	2.16e-08	i	12.5%	i
79	Cn1c(-c2ccc3c(c2)OCO3)cnc1NC(=O)CCC(=O)NCCc1ccccc1	-1.5%	2.07e-08	i	5.0%	i
80	O=C(CSc1nc(-c2ccccc2)c(-c2ccccc2)o1)N1CCOCC1	-0.6%	x	x	u	x
81	COC(=O)CC(C(=O)Nc1cc(C(=O)OC)cc(C(=O)OC)c1)N1CCN(C)CC1 (stereo not drawn)	-1.3%	3.7e-09	i	2.8%	i
82	COc1ccc(Cc2nnc(SCC(=O)NC(C)c3ccccc3)o2)cc1 (stereo not drawn)	0.6%	x	x	16.4%	x
83	CCCCC(CCC(=O)Nc1ccccc1C(=O)OCC)C(=O)O (stereo not drawn)	1.3%	1e-09	i	u	i

Not all compounds are listed; count on the stated rates, not on these rows.
